miR-21 FLuc – miR-21 reporter, rising signal; HeLa miR-21 FLuc reporter, luciferase, 48 h; 340,000 tested, under 10 active; Potency, µM (doses to about 38.3 µM), without a hit: at the top dose reporter change, positive = more light; active = well fitted rising curve with a large enough effect; inconclusive = small, poorly fitted or top-dose-only effect; inactive = no such curve, though single readings can be large or run the other way;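 also: % of control where 0% means no effect; miR-21 action dims this reporter so a rising signal means less miR-21 action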
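Luminescence from a firefly luciferase reporter carrying a miR-21 binding site downstream, stably expressed under a CMV promoter in HeLa cells that make miR-21 endogenously, reports miRNA modulation after 48 h compound exposure up to approximately 40uM final.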
GLA inh pH 4.5 – inhibitors of human alpha-galactosidase A at pH 4.5; 230,000 tested, under 10 active; purified enzyme, 4-MU-alpha-Gal fluorescence, pH 4.5; activity change, negative = inhibition, % at 105 µM; P06280; inconclusive = small, poorly fitted or top-dose-only inhibition, or a rising curve; inactive = flat fitted curve, though single readings scatter; no compound was filed as active;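 also: 0% = full activity with enzyme and -100% = basal without enzyme; dose as in the result columns while the protocol names 77 µM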
Target sequence (P06280 whole entry, looked up): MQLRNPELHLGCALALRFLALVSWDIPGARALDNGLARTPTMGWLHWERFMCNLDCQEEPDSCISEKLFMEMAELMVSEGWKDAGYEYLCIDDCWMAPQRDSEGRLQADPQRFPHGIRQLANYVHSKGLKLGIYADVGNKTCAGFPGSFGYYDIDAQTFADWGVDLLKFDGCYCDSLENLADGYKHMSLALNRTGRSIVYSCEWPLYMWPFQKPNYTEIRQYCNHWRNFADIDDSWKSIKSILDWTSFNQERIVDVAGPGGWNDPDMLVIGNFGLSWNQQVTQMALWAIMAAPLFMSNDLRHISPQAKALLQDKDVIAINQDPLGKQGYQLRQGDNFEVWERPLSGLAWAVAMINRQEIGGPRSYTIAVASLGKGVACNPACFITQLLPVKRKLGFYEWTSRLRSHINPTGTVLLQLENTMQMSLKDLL
Rango complex inh – inhibitors of Rango-importin beta complex formation | Potency, µM (titrated, usually from 92.2 µM), for the others: at the top dose inhibition of complex formation | Q14974 | 340,000 tested, 0.031% active | AID 540263 | Rango CFP/YFP FRET sensor + importin beta, 45 min; active = rising FRET ratio curve, often small or poorly fitted; inconclusive = mostly compound fluorescence or quenching in the first reads; inactive = flat curves in all reads;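 also: potency is read from the fitted curve at half-maximal effect; 0% = DMSO wells and 100% = buffer wells lacking importin beta; nearly all actives have a fitted effect of over 15% in size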
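FRET biosensor Rango (snurportin 1 IBB between N-terminal EYFP and C-terminal Cerulean), 50 nM in PBS/1 mM DTT/0.02% Tween-20/0.1% BSA, preincubated 5 min RT with compound; 0.125 microM importin beta added, 45 min RT, CFP/YFP FRET ratio read.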
Rango dissoc inh – prevents RanGTP from dissociating the Rango-importin beta complex; Biochemical FRET Rango-importin beta, RanGTP-induced dissociation; Potency, µM (series often up to 46.1 µM), inactives show at the highest dose activity change, negative = inhibition; 340,000 tested, 0.071% active; active means falling FRET ratio curve, often poorly fitted, with flat reads before Ran was added; inconclusive means other falling curves, or compound fluorescence or quenching; inactive means flat or rising ratio curve;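 also: potency is read from the fitted curve at half-maximal effect; % of control where 0% means no effect; nearly all actives have a fitted effect of over 45% in size; -100% = wells without RanGTP and RCC1; the record marks most hits as doubtful in a second field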
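Rango/importin beta premix (0.1/0.25 uM final), PBS + 1 mM DTT + 0.02% Tween-20 + 0.1% BSA; cpd 5 min RT; FRET pre-read; + RanGTP-RCC1 (0.6 uM Ran, 2 mM GTP, 0.2 uM RCC1); 45 min RT; FRET post-read, ex 430, em 486/530 nm.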
Numbers without * were called inactive; [ ] = remark or other dose. Not all compounds are listed (hit frequency here may not be typical).

A first look, 4 compounds:
Oc1ccc(-c2sc(Nc3ccccc3)n[n+]2-c2ccc(F)cc2)cc1 was read as miR-21 FLuc 0%, Rango complex inh 0.5% and Rango dissoc inh -3%.
Screening CC(=O)c1cccc(NC(=O)c2sc(Cl)nc2C)c1 returned miR-21 FLuc 0%, Rango complex inh 1.2% and Rango dissoc inh 3%.
COC(=O)c1ccc(CON2C(=O)c3ccccc3C2=O)cc1 was read as miR-21 FLuc -7%, GLA inh pH 4.5 1, Rango complex inh 1.0% and Rango dissoc inh -11%.
`CCn1c2ccccc2c2cc(/C=N/O)ccc21` gave miR-21 FLuc 4%, GLA inh pH 4.5 -5, Rango complex inh 0.2% and Rango dissoc inh -1%.

All compounds of this part, from the start:
Oc1ccc(-c2sc(Nc3ccccc3)n[n+]2-c2ccc(F)cc2)cc1 was read as miR-21 FLuc 0%, Rango complex inh 0.5% and Rango dissoc inh -3%.
Screening CC(=O)c1cccc(NC(=O)c2sc(Cl)nc2C)c1 returned miR-21 FLuc 0%, Rango complex inh 1.2% and Rango dissoc inh 3%.
COC(=O)c1ccc(CON2C(=O)c3ccccc3C2=O)cc1 was read as miR-21 FLuc -7%, GLA inh pH 4.5 1, Rango complex inh 1.0% and Rango dissoc inh -11%.
`CCn1c2ccccc2c2cc(/C=N/O)ccc21` gave miR-21 FLuc 4%, GLA inh pH 4.5 -5, Rango complex inh 0.2% and Rango dissoc inh -1%.
Screening CC(=O)c1cccc(NC(=S)NCCc2ccc(F)cc2)c1 returned miR-21 FLuc -3%, GLA inh pH 4.5 5, Rango complex inh 1.8% and Rango dissoc inh -14%.
COc1nccnc1NS(=O)(=O)c1ccc(N)cc1 was read as miR-21 FLuc 1%, Rango complex inh 9.6% and Rango dissoc inh -18%.
COc1ccc(NS(=O)(=O)c2ccc(N/N=C(\C)c3ccncc3)c([N+](=O)[O-])c2)cc1 was read as miR-21 FLuc 2%, GLA inh pH 4.5 17, Rango complex inh 6.2% and Rango dissoc inh 6%.
Cc1ccc(CNC(=O)c2ccc(C)s2)cc1 was read as Rango complex inh 5.3% and Rango dissoc inh -1%.
C/C(=N\NC(=O)CCCNc1cccc(C)c1)c1ccncc1 was read as miR-21 FLuc 4%, GLA inh pH 4.5 3, Rango complex inh 2.0% and Rango dissoc inh -3%.
Screening Cc1ccc(NC(=O)c2ccc(NCCN)c([N+](=O)[O-])c2)cc1Cl returned miR-21 FLuc -29%, GLA inh pH 4.5 -2, Rango complex inh 0.0% and Rango dissoc inh 3%.
For COc1ccc(N(C(=O)c2cccnc2)S(=O)(=O)c2cccc([N+](=O)[O-])c2)cc1 the results were miR-21 FLuc 0%, GLA inh pH 4.5 -6, Rango complex inh -0.7% and Rango dissoc inh -3%.
COc1ccc(OC)c(C(=O)NC2CC(C)(C)Cc3c2cnn3-c2ccccc2)c1 (stereo not given) was read as miR-21 FLuc 22%, Rango complex inh -0.4% and Rango dissoc inh 14%.
`CCN(C(=O)COC(=O)C(Cc1ccccc1)N1C(=O)c2ccccc2C1=O)C1CCS(=O)(=O)C1` (stereo not given) gave miR-21 FLuc -3%, GLA inh pH 4.5 -4, Rango complex inh -1.7% and Rango dissoc inh 2%.
O=C(Nc1cccc(C(F)(F)F)c1)c1sc(Cl)nc1C(F)(F)F was read as miR-21 FLuc 25%, Rango complex inh 1.4% and Rango dissoc inh -5%.
COc1ccc(C(=O)c2c(N)sc3c2CCN(C)C3)cc1 was read as miR-21 FLuc -1%, Rango complex inh 1.2% and Rango dissoc inh -4%.
`O=C(CS(=O)(=O)c1ccc(Cl)cc1)NCc1ccccc1` gave miR-21 FLuc -4%, Rango complex inh 4.9% and Rango dissoc inh 4%.
C/C(=N/NS(=O)(=O)c1ccccc1)c1ccc(NC(=O)C2CC2)cc1 was read as miR-21 FLuc -3%, GLA inh pH 4.5 9, Rango complex inh -3.9% and Rango dissoc inh 8%.
Screening c1ccc(Cn2nnc3cnccc32)cc1 returned miR-21 FLuc -11%, Rango complex inh -1.8% and Rango dissoc inh 2%.
`CC(C)CC(=O)/C(=C/c1ccc(N(C)C)cc1)n1cncn1` gave miR-21 FLuc -9%, Rango complex inh inconclusive and Rango dissoc inh inconclusive.
Screening Cn1c(N2CCC(C(N)=O)CC2)nc2c1c(=O)n(Cc1ccc(Br)cc1)c(=O)n2C returned Rango complex inh -2.6% and Rango dissoc inh -3%.
For O=C1CC(C2CCCO2)C(=O)N1c1cccc(Cl)c1 (stereo not given) the results were miR-21 FLuc -3%, GLA inh pH 4.5 0, Rango complex inh 0.9% and Rango dissoc inh -2%.
`N#C/C(=C\c1ccc(-c2ccc(C(=O)O)cc2)o1)C(=O)NCC1CCCO1` (stereo not given) gave miR-21 FLuc -41%, GLA inh pH 4.5 10, Rango complex inh inconclusive and Rango dissoc inh inconclusive.
`O=C1c2ccccc2C(=O)c2c(NCCCN(CCO)CCO)cccc21` gave miR-21 FLuc 19%, GLA inh pH 4.5 -1, Rango complex inh -1.2% and Rango dissoc inh -6%.
`Cc1ccn2c(CNCC3COCCO3)c(C(=O)N3CCCCCC3)nc2c1` (stereo not given) gave miR-21 FLuc -3%, Rango complex inh -2.4% and Rango dissoc inh -4%.
`Cc1cccc(CN2CCN(C3CCCC3)C(CCO)C2)n1` (stereo not given) gave miR-21 FLuc 0%, GLA inh pH 4.5 4, Rango complex inh -3.6% and Rango dissoc inh 5%.
`C=CCN(CC=C)C(=O)c1cccc(OC2CCN(CC(C)(C)C)CC2)c1` gave miR-21 FLuc 0%, Rango complex inh 1.8% and Rango dissoc inh -4%.
Cc1cc(C)cc(N(CC(=O)NCCSCc2ccccc2)S(C)(=O)=O)c1 was read as miR-21 FLuc 4%, GLA inh pH 4.5 5, Rango complex inh 5.2% and Rango dissoc inh inconclusive.
CN(C(=O)Cc1noc2ccccc12)c1ccccc1 was read as miR-21 FLuc -10%, GLA inh pH 4.5 12, Rango complex inh -1.6% and Rango dissoc inh -9%.
Screening CN1C(=S)N(c2cccnc2)C(=O)/C1=C\c1ccc(N(C)C)cc1 returned miR-21 FLuc 4%, GLA inh pH 4.5 -4, Rango complex inh 4.7% and Rango dissoc inh 17%.
For Cc1cc(C)cc(C(=O)N2CCC3(CC2)NCCc2[nH]cnc23)c1 the results were miR-21 FLuc 2%, Rango complex inh 1.9% and Rango dissoc inh -8%.
Screening COc1ccc(CN(C)C(=O)c2cc(-c3ccccc3)nc3ccc(C)cc23)c(OC)c1OC returned miR-21 FLuc 13%, Rango complex inh -3.3% and Rango dissoc inh 4%.
For C=CCN(C(=O)CCc1ccccc1OC)c1nc(-c2ccc(S(C)(=O)=O)cc2)cs1 the results were miR-21 FLuc 1%, Rango complex inh 0.2% and Rango dissoc inh -7%.
For COc1ccc(C(=O)NCc2ccccc2)cc1Br the results were miR-21 FLuc -3%, GLA inh pH 4.5 3, Rango complex inh -4.2% and Rango dissoc inh 7%.
`O=S1(=O)c2cccc3cccc(c23)N1Cc1ccc(-c2nnco2)cc1` gave miR-21 FLuc -7%, GLA inh pH 4.5 -21, Rango complex inh 2.1% and Rango dissoc inh -11%.
COc1ccc(C(=O)Nc2ccccc2C(=O)O)cc1Cl was read as miR-21 FLuc -69%, GLA inh pH 4.5 9, Rango complex inh 1.4% and Rango dissoc inh 22%.
`CN(C)S(=O)(=O)c1ccc2c(c1)nc(CCC(=O)NCC1CCCCC1)n2C` gave miR-21 FLuc -3%, GLA inh pH 4.5 1, Rango complex inh 2.3% and Rango dissoc inh -11%.
`COC(=O)c1ccc(CSc2ncnc3sc(C)c(C)c23)o1` gave miR-21 FLuc -2%, GLA inh pH 4.5 1, Rango complex inh 3.7% and Rango dissoc inh 3%.
`COC(=O)c1ccc(CNC(=O)C2CCC(=O)N(CCCc3ccccc3)C2)cc1` (stereo not given) gave miR-21 FLuc 4%, Rango complex inh 1.4% and Rango dissoc inh 1%.
For O=C(COC(=O)Cc1ccccc1F)NCCc1ccccc1 the results were Rango complex inh -1.5% and Rango dissoc inh 8%.
Screening C[N+]1(CCCCCCC(=O)/C=N/O)CCCCCC1 returned miR-21 FLuc -2%, GLA inh pH 4.5 -8, Rango complex inh 0.2% and Rango dissoc inh -5%.
O=C(CSc1nc(O)c(C2CCCCC2)c(=O)[nH]1)Nc1ccccc1Cl was read as miR-21 FLuc -1%, Rango complex inh 6.0% and Rango dissoc inh 2%.
CN1CCN(S(=O)(=O)c2cccc(C(=O)Nc3ccccc3N3CCOCC3)c2)CC1 was read as miR-21 FLuc 1%, GLA inh pH 4.5 1, Rango complex inh -2.3% and Rango dissoc inh -21%.
Screening COc1ccc(C(NC(=O)CC(C)C)c2c(O)ccc3ccccc23)cc1 (stereo not given) returned miR-21 FLuc 25%, Rango complex inh 0.1% and Rango dissoc inh -15%.
Screening CC1CC(=O)N(c2ccc(N(C)Cc3ccccc3)c([N+](=O)[O-])c2)C1=O (stereo not given) returned miR-21 FLuc -3%, GLA inh pH 4.5 -2[21.1 µM], Rango complex inh -3.4% and Rango dissoc inh 0%.
For COC(=O)Cn1nc(-c2ccc(C)cc2)c2ccccc2c1=O the results were miR-21 FLuc -10%, GLA inh pH 4.5 3, Rango complex inh -1.4% and Rango dissoc inh 2%.
Screening Brc1ccc(-c2nc3ccccc3s2)s1 returned miR-21 FLuc -43%, GLA inh pH 4.5 4, Rango complex inh -0.2% and Rango dissoc inh -8%.
For O=C(Nc1cc(C(F)(F)F)ccc1Cl)C(=O)N1CCCCC1 the results were miR-21 FLuc -9%, GLA inh pH 4.5 2, Rango complex inh 2.9% and Rango dissoc inh 5%.
CC(C)(C)c1ccc(S(=O)(=O)CC(O)CSc2nc3c(cc2C#N)CCCC3)cc1 (stereo not given) was read as miR-21 FLuc -4%, GLA inh pH 4.5 -14, Rango complex inh -1.0% and Rango dissoc inh -3%.
For CC(C)(C)C(=O)NC(=S)N1CCOCC1 the results were miR-21 FLuc -11%, GLA inh pH 4.5 2, Rango complex inh 4.6% and Rango dissoc inh -2%.
For Cn1nccc1C(=O)N1CCCC(C(=O)c2ccc(Oc3ccccc3)cc2)C1 (stereo not given) the results were miR-21 FLuc 21%, Rango complex inh -0.1% and Rango dissoc inh 11%.
For COc1ccc2oc(C(=O)OCC(=O)N(C)c3ccccc3)c(C)c2c1 the results were Rango complex inh -2.3% and Rango dissoc inh -2%.
CCOc1ccc(NC(=S)Nc2cccc3ccccc23)cc1 was read as miR-21 FLuc -32%, Rango complex inh 2.5% and Rango dissoc inh 0%.
`O=S(=O)(Nc1cccc(-c2ccc3nncn3n2)c1)c1ccccc1F` gave Rango complex inh 6.3% and Rango dissoc inh 0%.
`Cc1ccc(-c2nnc(NCc3nc4ccccc4[nH]3)c3ccccc23)cc1S(=O)(=O)N1CCCCC1` gave miR-21 FLuc 12%, GLA inh pH 4.5 -16, Rango complex inh -1.0% and Rango dissoc inh -23%.
Screening N#Cc1ccsc1NC(=O)CN1CCN(c2ccc(O)cc2)CC1 returned miR-21 FLuc -13%, GLA inh pH 4.5 3, Rango complex inh -3.9% and Rango dissoc inh -4%.
For Cc1cccc(N2CCN(C(=O)C3CCCN(S(=O)(=O)c4cnc[nH]4)C3)CC2C)c1 (stereo not given) the results were miR-21 FLuc -2%, GLA inh pH 4.5 -4, Rango complex inh 1.3% and Rango dissoc inh 6%.
Screening COc1ccc2[nH]c(=O)c(CN(Cc3ccco3)Cc3nnnn3Cc3ccccc3)cc2c1 returned miR-21 FLuc 0%, GLA inh pH 4.5 6, Rango complex inh inconclusive and Rango dissoc inh inconclusive.
Cc1ccc(-n2cc(CN3CCNC(=O)CC3)c(-c3cccc(C)c3)n2)cc1 was read as miR-21 FLuc -10%, GLA inh pH 4.5 -7, Rango complex inh -0.2% and Rango dissoc inh 3%.
For O=C(CSc1nc2[nH]c(=O)cc(O)c2s1)Nc1nncs1 the results were Rango complex inh 2.5% and Rango dissoc inh -1%.
For Cc1nc(CSc2nsc(C)c2C#N)cs1 the results were miR-21 FLuc -33%, GLA inh pH 4.5 12, Rango complex inh 0.5% and Rango dissoc inh -1%.
O=C(NC(Cc1ccccc1)C(=O)O)C1CCN(S(=O)(=O)c2ccccc2C(F)(F)F)CC1 (stereo not given) was read as miR-21 FLuc 2%, Rango complex inh -0.5% and Rango dissoc inh 0%.
